High-throughput results as filed in PubChem.
Tg IFNy HTS: T. gondii growth inhibition with IFN-gamma, primary screen, cell-based | actives 3.8% (n = 69,000) | activity change, negative = inhibition, %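 (about 20 µM by stock and volumes)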 | Toxoplasma gondii growth in IFN-gamma-treated host cells; active compounds read low; reference of the scale not given here;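 active = below -70%; inconclusive = fit judged invalid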;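 note: host cells are HeLa cells infected with Toxoplasma gondii; parasite growth read as luciferase light; one replicate is shown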
An asterisk follows results filed as active; ? = inconclusive; & = joins results of further samples. Not all compounds are listed; the hit share may differ from the screen's.

SMILES	Tg IFNy HTS
O=C(Oc1cccccc1=O)c1ccccc1	0.1
COCCN1[C@@H]2CCN(C(=O)[C@H]3CCCO3)CC[C@@H]2Oc2ccccc2S1(=O)=O	17.1
Cc1oc(-c2ccc(NC(=O)c3ccc(F)cc3F)cc2)nc1Cn1cccn1	-35.3
CCc1cn[nH]c1C1CCCN(C(=O)c2sc(C(C)C)nc2C)C1 (stereo not drawn)	-6.4
CC(=O)N(CCC(Cc1ccccc1)c1ccc2c(c1)OCO2)Cc1ccc(Cl)cc1 (stereo not drawn)	62.6
CCc1ccc(NC(=O)C(=O)NCCc2csc(-c3ccc(C)cc3)n2)cc1	483.8
CCn1c(=O)c(-c2nc(-c3cc(C)ccc3C)no2)c(O)c2ccc(F)cc21	-12.4
CN(Cc1ccccn1)C(=O)C1=NOC2(CCN(S(=O)(=O)c3cccc(F)c3)C2)C1 (stereo not drawn)	-80.6*
CCCCN1CCC(CCC(=O)c2cc(Cl)c(N)cc2OC)CC1	-4.3&0.5
COc1ccccc1C(=O)N1CCC2(CC1)CN(Cc1ncc[nH]1)CCN2C	19.5

Taken from above:
`Cc1oc(-c2ccc(NC(=O)c3ccc(F)cc3F)cc2)nc1Cn1cccn1` in Tg IFNy HTS has -35.3
`O=C(Oc1cccccc1=O)c1ccccc1` in Tg IFNy HTS has 0.1

Continued.
SMILES	Tg IFNy HTS
COc1ccc(OCC2CCN(S(C)(=O)=O)CC2)cc1	24.0
COCCn1c(C)c(C)c2cc(NC(=O)c3cn(C)c(=O)c4ccccc34)ccc21	4.5
COc1ccc2c(c1O)Cc1ccccc1C2=O	48.8
CCCN1C(=O)CCc2cc(NS(=O)(=O)c3ccccc3C(=O)OC)ccc21	-41.8
CCCC(NC1CCN(C(=O)OCC)CC1)c1nccn1C (stereo not drawn)	8.9
O=C(C[C@H]1CC[C@H]2[C@@H](COC[C@H](O)CN2CCC(F)(F)F)O1)NCc1ccc2c(c1)OCO2	-34.6
CC(C)N1CC[C@@]2(C[C@@H](NS(=O)(=O)C3CC3)CCO2)C1	-4.6
CC(C)NC(=O)N1CCOCC2(CCN(Cc3nccs3)C2)C1 (stereo not drawn)	14.3
CN1CCN(C(=O)C[C@H]2CC[C@@H]3[C@H](COC[C@@H](O)CN3C(=O)c3ccccc3F)O2)CC1	-13.9
COc1ccc(S(=O)(=O)N2CCCc3ccccc32)cc1	-112.6*
COc1cc(-c2nnc(-c3ccc(N4CCOCC4)cc3)o2)cc(OC)c1OC	-23.6
CCOc1cccc(CNc2c(C(=O)OC)c(=O)[nH]c3c(Cl)cccc23)c1	-81.8*
Cc1ccc2oc(N3CCN(Cc4cc(C(C)C)no4)CC3)nc2c1	21.0
CC1=C(C(=O)NCCN2CCOCC2)C2(CCN(S(C)(=O)=O)CC2)OC1=O	29.3
CN(CC1(CO)CCCC1)c1nccc(N2CCCC(O)C2)n1 (stereo not drawn)	4.5
C[C@H]1CN([C@@H](C)CO)C(=O)c2cc(C3=CCCCC3)cnc2O[C@@H]1CN(C)S(=O)(=O)c1cn(C)cn1	89.8
COc1ccc(-c2ccc(SCc3ccccn3)nn2)cc1OC	-63.9
Cc1ccc(S(=O)(=O)N2CCC3(CCC(C(=O)NCC4CC4)O3)C(C)C2)cc1 (stereo not drawn)	-4.5
CC(C)CCN1C[C@]23CN(C(=O)c4ccn[nH]4)C[C@@H](C[C@H]2S1(=O)=O)O3	-31.7
Cc1ccc2nc(-c3ccc(NC(=O)COc4ccc(Cl)c(C)c4)cc3)sc2c1	16.4
O=C(Nc1nccnc1C(=O)N1CCC(N2CCCCC2)CC1)c1ccccc1	-44.5
CC(C)NC(=O)Nc1ccc2c(c1)C(=O)N([C@@H](C)CO)C[C@H](C)[C@@H](CN(C)C(=O)C1CCCCC1)OCCCC[C@H](C)O2	339.4
CN(CC(=O)Nc1cnc2n1CCCC2)Cc1cccnc1	-7.7
CSCc1ccc(C(=O)N(C)C(C)Cc2cc(C)ccn2)o1 (stereo not drawn)	12.5
COc1ccc2c3c(n(C)c2c1)[C@@H](CO)N(C)CC31CCN(C(=O)CN2CCOCC2)CC1	55.6
C(=C\c1ccccc1)/CNCc1ccco1	2.7
COc1ccc(C(=O)NCCc2csc(-c3cccc(F)c3)n2)cc1	7.1
COc1cccc(S(=O)(=O)Nc2ccc3c(c2)C(=O)N(C)[C@H]2CC[C@@H](CC(=O)NCC4CCCCC4)O[C@@H]2CO3)c1	-44.1
CN1C(=O)c2cc(NC(=O)c3cccc(C(F)(F)F)c3)ccc2OC[C@@H]2O[C@@H](CC(=O)NCCN3CCCC3)CC[C@@H]21	20.0
N#CCc1c(Cl)sc2ccc(Cl)cc12	-32.8
CC(C)N1CCO[C@H]2CN(Cc3cnn(C)c3)C[C@@H]21	-12.9
CCCCn1c(=O)c2c(ncn2CC(C)=O)n(CCCC)c1=O	0.4
CS(=O)(=O)N1CC(=O)N2[C@@H](CO)[C@H](c3ccc(Br)cc3)[C@@H]2C1	19.2
CC(=O)c1sc(-c2ccc(Cl)cc2)cc1NC(=O)CSc1ccc(Cl)cc1	-28.6
COc1cc2c(cc1NCc1cccnc1)oc1ccccc12	119.6
CCN(C[C@H]1N[C@H](CO)[C@H]1c1ccccc1)C(=O)c1ccncc1	-14.1
CS(=O)(=O)N1CCC2(CC1)C(=O)N(CC1CC1)C2c1ccccc1 (stereo not drawn)	17.9
Cc1[nH]cnc1CN1CCc2[nH]cnc2C1c1ccc(F)cc1Cl (stereo not drawn)	-1.2
CCCN(Cc1cccnc1)C(=O)c1ccc(OC)c(Cl)c1	1.6
CS(=O)(=O)N1CSC[C@@H]1C(=O)NCCc1csc(-c2ccccc2)n1	0.3
Cc1noc(-c2cc(=O)n(CC(=O)NCc3ccc(F)cc3Cl)c3ccccc23)n1	-34.4
CCCCCOC(=O)Nc1nc(=O)n([C@@H]2O[C@H](C)[C@@H](O)[C@H]2O)cc1F	-53.3
O=C1CSC(c2ccccc2)N1Nc1nc(N2CCOCC2)nc(N2CCOCC2)n1 (stereo not drawn)	-13.7
CN(C)CCCNC(=O)c1cc(-c2cnc(-c3ccccc3)nc2)cn1C	-28.5
CC1=C(C(=O)NCc2ccco2)C2(CCN(S(=O)(=O)c3cccs3)CC2)OC1=O	11.2
CCc1cc(CN(C)C(=O)c2cc(C)nc3ccc(C)cc23)on1	-21.3
O=C(CSc1ccccn1)Nc1ccc(Cl)c(Cl)c1	-27.5
Cc1nn(CC(=O)NCc2ccc(F)cc2F)c(=O)c2nc(-c3ccccc3)sc12	-16.4
COc1cc(F)ccc1-c1ccc(Cn2ccnc2)cn1	2.5
Cc1cc(C(=O)N2CCCCC2)c2c(=O)n(Cc3nc(-c4ccccc4)oc3C)c(=O)n(C)c2n1	10.6

The list goes on:
SMILES	Tg IFNy HTS
CN(C)C1CCCN(C(=O)C23CC4CC(C2)CC(n2cncn2)(C4)C3)CC1 (stereo not drawn)	-42.8
Cc1ccsc1CN(CCN(C)C)C(=O)CN	8.1
Cc1c(C(=O)NCCCN2CCOCC2)cnn1-c1nccc(-c2cc3ccccc3o2)n1	-25.8
O=C(C[C@H]1CC[C@@H]2[C@H](COC[C@@H](O)CN2C(=O)c2cccnc2)O1)NCC1CC1	10.7
COCC1CN(Cc2ccccn2)Cc2cn(C)nc21 (stereo not drawn)	5.1
Cc1cc(CSc2nc3ccccc3o2)c(C)cc1CSc1nc2ccccc2o1	-2.6
O=C(CCC1CCCC1)N1CCc2c([nH]c3ccccc23)C1c1ccc(F)cc1 (stereo not drawn)	-66.7
CCOCc1cc(C)[nH]c(=O)c1C#N	-1.0
O=C(O)C1CC2(CCNCC2)CN1C(=O)CCc1ccc(F)cc1 (stereo not drawn)	1.5
Cc1cc(C(=O)N2C[C@@H]3C[C@@H](C(N)=O)CN3Cc3ccccc32)no1	6.8
COc1ccccc1N1CCC(N2CCOC(C(F)(F)F)C2)CC1 (stereo not drawn)	-3.4
C[C@@H]1CCCCO[C@@H](CN(C)C(=O)c2ccncc2)[C@H](C)CN([C@@H](C)CO)C(=O)c2cc(NC(=O)CCC(F)(F)F)ccc2O1	21.5
CC(C)c1nnc(-c2cc3sccc3s2)o1	120.5
O=C(O)c1ccnc(-c2cc(C(=O)O)ccn2)c1	-47.1
c1cncc(COC2CCCN(Cc3cnc(-c4ccco4)nc3)C2)c1 (stereo not drawn)	10.0
COC(=O)C[C@@H]1CC[C@H]2[C@@H](COC[C@H](O)CN2S(=O)(=O)c2cn(C)cn2)O1	-47.8
CC(C)Nc1ncc(-c2cccs2)c(-c2cccnc2)n1	-4.0
CN1C(=O)c2cc(NC(=O)c3cnccn3)ccc2OC[C@H]2O[C@@H](CC(=O)N[C@@H]3CCN(Cc4ccccc4)C3)CC[C@H]21	-5.2
O=C(C[C@H]1CC[C@H]2[C@@H](COC[C@H](O)CN2C(=O)c2ccccc2F)O1)NCc1ccc(Cl)c(Cl)c1	-61.4
CCn1cc(C(=O)N2CCC(c3cc4c(C)cccc4cn3)CC2)c(C)n1	-31.5
COc1ccc(S(=O)(=O)Nc2cncc(C(=O)Nc3ccc(Cl)cc3)c2)cc1OC	-3.7
O=C1NCc2c1c1c3ccccc3[nH]c1c1[nH]c3ccccc3c21	1.5
CCOc1ccc(NC2=NCCC(=O)N2Cc2cccs2)cc1	15.7
Nc1ncc(Cc2ccccc2F)s1	64.5
CC(C)C1CN(C(=O)c2cc3ccccc3[nH]c2=O)CCCN1CC1CC1 (stereo not drawn)	-1.9
Cc1cc(C)cc(NS(=O)(=O)c2cc3c4c(c2)CCC(=O)N4CCC3)c1	-8.1
CNC[C@H]1OCCCC[C@H](C)Oc2ccc(N)cc2C(=O)N([C@@H](C)CO)C[C@@H]1C	48.3
OCCn1cc(-c2cnc3nnn(Cc4ccc5ncccc5c4)c3n2)cn1	19.5
CCN(C(=O)COc1nc(C)nc2ccccc12)c1ccccc1	7.9
FC(F)(F)c1oc(-c2ccccc2Cl)cc1-c1nc(-c2cccs2)no1	-3.9
O=C(Nc1cc(F)ccc1F)N[C@H]1CC[C@@H](CC(=O)N2CCc3ccccc3C2)O[C@@H]1CO	-44.2
Cc1cc(CC(C)Nc2nc(-c3cccnc3)nc3c2CNC3)n[nH]1 (stereo not drawn)	1.6
O=C(C[C@H]1C=C[C@H](NC(=O)Nc2cccc(F)c2)[C@@H](CO)O1)NCC1CCCCC1	-35.8
Cc1onc(-c2ccccc2)c1-c1csc(-c2ccc(C(C)(C)C)cc2)n1	?
CSc1cccc(NC(=O)Cn2ncc3c(N4CCCCCC4)ncnc32)c1	102.7
CN1C(=O)c2cc(NC(=O)Nc3ccccc3F)ccc2OC[C@H]2O[C@@H](CC(=O)NCCc3ccncc3)CC[C@H]21	-6.3
COc1ccc(NC(=O)N(C)C[C@@H]2Oc3ccc(NC(=O)CCN4CCOCC4)cc3C(=O)N([C@H](C)CO)C[C@@H]2C)cc1	17.4
COc1ccc(S(=O)(=O)N(C)C[C@@H]2OCCCC[C@H](C)Oc3ccc(NC(=O)Cc4ccccc4)cc3C(=O)N([C@H](C)CO)C[C@@H]2C)cc1	-91.9*
CCN1C(=O)CCc2cc(NC(=O)c3cc(F)ccc3Cl)ccc21	64.2
CO[C@@H]1CC[C@@H]2CCOc3c(C#N)cccc3C(=O)N(C)CCCC(=O)N(C)C[C@H]1O2	-52.4

Pulled by compound from the entries so far, five records:
SMILES	Tg IFNy HTS
CO[C@@H]1CC[C@@H]2CCOc3c(C#N)cccc3C(=O)N(C)CCCC(=O)N(C)C[C@H]1O2	-52.4
COc1ccc(NC(=O)N(C)C[C@@H]2Oc3ccc(NC(=O)CCN4CCOCC4)cc3C(=O)N([C@H](C)CO)C[C@@H]2C)cc1	17.4
CSc1cccc(NC(=O)Cn2ncc3c(N4CCCCCC4)ncnc32)c1	102.7
CCN1C(=O)CCc2cc(NC(=O)c3cc(F)ccc3Cl)ccc21	64.2
COc1ccc(S(=O)(=O)N(C)C[C@@H]2OCCCC[C@H](C)Oc3ccc(NC(=O)Cc4ccccc4)cc3C(=O)N([C@H](C)CO)C[C@@H]2C)cc1	-91.9*

(more compounds)
SMILES	Tg IFNy HTS
O=C(O)c1ccccc1OCC1CCCO1 (stereo not drawn)	-4.2
Cc1ccoc1C(=O)N1CCc2ncnc(C3CC3)c2CC1	-9.7
COc1cccc(-n2c(=O)c(C(=O)NCc3cccs3)c(O)c3cccnc32)c1	134.6
CCOCC(=O)NCC1Cn2nnc(-c3cncnc3)c2CO1 (stereo not drawn)	9.6
CCOc1ccccc1N=Nc1c(C)[nH]n(-c2nc(-c3ccccc3)cs2)c1=O	-1.4
CN1CCC(Cc2noc(-c3cccc(-n4cccn4)c3)n2)CC1	-4.8
CNC(=O)[C@H]1CC2CN(C(=O)c3ccc4c(c3)OCO4)CC2N1C(C)C (stereo partly drawn)	6.5
CCOCC1CCC2(CCN(C(=O)CCc3ccccc3C)CC2)N1C (stereo not drawn)	-2.8
CCC1=NC2(CCC(C(=O)Nc3ccc(C)nc3)CC2)C(=O)N1CCOC (stereo not drawn)	2.8
Cc1ccc(C)c(N2CCN(CC(=O)Nc3nccs3)CC2)c1	5.0
CN1CC2(CCCN(Cc3nccn3C)CC2)OC1=O (stereo not drawn)	8.5
Cc1cnc(C)c(-c2cc(O)c3c(c2)CN(Cc2ncccc2C)CCO3)n1	-6.8
O=C(COc1ccc(Cl)cc1)N1CCNCC1	-25.5
N#C[C@H]1[C@@H](c2ccccc2)[C@H](CO)N1C(=O)c1ccccc1F	9.8
CSCc1noc(CN2CCCC2c2nc3ccc(F)cc3[nH]2)n1 (stereo not drawn)	4.1
CC(=O)O[C@@H]1C[C@H]2C(C)(C)C(=O)C=C[C@]2(C)[C@H]2CC[C@@]3(C)[C@H](c4ccoc4)OC(=O)[C@H]4O[C@]43[C@@]21C	52.3
O=C(CN1CCOC1=O)N1Cc2cnn(Cc3ccc(F)cc3)c2C1	5.4
CS(=O)(=O)N1CCCC12CCCN(C(=O)C1CCCO1)C2 (stereo not drawn)	-16.8
COc1ccc(-c2noc(COc3cccnc3C)n2)c(OC)c1OC	-26.0
O=C(NCCc1csc(-c2ccccc2)n1)[C@H]1CCCN1C(=O)c1ccc(F)cc1	12.4
